High-throughput results: PubChem, several laboratories
INS promoter inh – TRM-6 insulin promoter activity inhibition. TRM-6 cells (human fetal islet line), insulin promoter-eGFP reporter, imaging; reporter expression induced with tamoxifen. inhibition, % at 2 µM. hit rate 0.9% among 130,000;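 active = inhibition above the mean plus 3 SD, with well images judged a real hit on visual review, cut at about 60% in these data, passing the limit was not always enough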
RGS16-Gao HTS – modulates binding between human RGS16 and Galphao; bead-based flow cytometry RGS16-Galphao binding, fluorescence; actives lie on both sides; binding response (% of control), % at 10 µM; hit rate 0.38% among 220,000;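 active = below 25% or above 175%, edge rows of some plates excepted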;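 note: Galphao activated by GDP with aluminum fluoride before binding; 100% = wells without compound and 0% = beads without RGS; some results beyond the cut were filed as inactive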
HSV replic up – HSV replication enhancement. HSV replication augmentation in cells, fold increase. maximum fold increase. hit rate 0.005% among 220,000. AID 1956;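 active = peak rise of 1.5-fold or more in the series; tested in PC3 cells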;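 note: first round at 10 µM; read as green reporter fluorescence; hits show the peak of a series up to 25 µM; 1 = signal of infected wells without compound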
PKD1 inh – PKD1 (human) kinase inhibition. inhibition, %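 (about 10 µM by stock and volumes)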. Q15139. hit rate 0.056% among 200,000. PKD1 kinase fluorescence polarization assay. AID 797;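 active = inhibition of 50% or more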;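 note: controls were vehicle for no effect and a reference inhibitor for full effect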
Target sequence (Q15139 whole entry, looked up): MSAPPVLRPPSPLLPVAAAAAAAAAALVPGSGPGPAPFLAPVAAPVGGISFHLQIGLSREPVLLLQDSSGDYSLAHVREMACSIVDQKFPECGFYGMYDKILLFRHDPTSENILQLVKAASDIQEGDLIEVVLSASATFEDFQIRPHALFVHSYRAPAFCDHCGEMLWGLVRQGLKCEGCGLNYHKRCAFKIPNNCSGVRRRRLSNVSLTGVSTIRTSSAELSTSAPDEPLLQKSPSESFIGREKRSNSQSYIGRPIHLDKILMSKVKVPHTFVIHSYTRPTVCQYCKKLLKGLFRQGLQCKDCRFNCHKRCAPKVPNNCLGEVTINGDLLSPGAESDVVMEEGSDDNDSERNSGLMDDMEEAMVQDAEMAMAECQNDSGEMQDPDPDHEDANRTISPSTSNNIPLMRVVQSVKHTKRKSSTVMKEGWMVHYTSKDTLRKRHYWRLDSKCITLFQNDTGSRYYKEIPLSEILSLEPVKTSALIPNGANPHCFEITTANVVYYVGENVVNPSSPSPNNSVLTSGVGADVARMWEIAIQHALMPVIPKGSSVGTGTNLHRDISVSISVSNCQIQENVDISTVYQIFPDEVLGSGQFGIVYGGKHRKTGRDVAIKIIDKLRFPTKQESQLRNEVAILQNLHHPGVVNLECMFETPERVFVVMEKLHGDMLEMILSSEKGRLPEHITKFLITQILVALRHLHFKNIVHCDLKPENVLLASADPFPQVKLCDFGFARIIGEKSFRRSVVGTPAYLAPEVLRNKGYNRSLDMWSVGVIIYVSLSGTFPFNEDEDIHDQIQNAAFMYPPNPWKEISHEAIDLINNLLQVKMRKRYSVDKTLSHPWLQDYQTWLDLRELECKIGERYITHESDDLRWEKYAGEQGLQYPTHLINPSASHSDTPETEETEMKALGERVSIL
GALR2 agonist – agonists of human galanin receptor 2 (GALR2) | hit rate 0.48% among 140,000 | AID 803 | O43603 | GALR2-expressing cells, agonist activation read-out | activation, %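 (tested at 5 µM)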;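 active = above mean plus 3 SD of all compounds, about 5% in these data, not always enough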;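 note: 0% = vehicle buffer wells and 100% = reference agonist at full effect; tested in CHO reporter cells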
INS promoter inh cell count – further read-out of INS promoter inh, marked with its call; normalized cell count, %; measured here: cell count, toxicity; reference of the scale not given here;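 cells exposed to compound for 48 h; stained nuclei by imaging scaled within each plate; lower means fewer cells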
HSV replic up primary fold – second read-out of HSV replic up, no call of its own (marks repeat the call); fold increase; compound at 10 µM; measured here: primary screen fold increase 10 uM; tested in PC3 cells;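 GFP signal in the first replicate; 1 = infected wells without compound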
Numbers without * were called inactive; i = inactive; x = no result given. No enrichment for hits; overall some 1.3% were active at least once.

Values run as follows: INS promoter inh	INS promoter inh cell count	RGS16-Gao HTS	HSV replic up	HSV replic up primary fold	PKD1 inh	GALR2 agonist
Cn1c(/C=N/c2nc3ccccc3[nH]2)nc2ccccc21
→ 40	77	85	i	0.92	-5	-2.2
CCOC(=O)c1c(Cc2ccccc2)c[nH]c1C
→ -6	103	100	i	1.1	2	x
CC1CN(C(=O)N2CCOCC2)CCN1C(=O)N1CCOCC1 (configuration not stated)
→ -67	34	115	i	0.96	-10	x
CCOc1ccccc1OCCOCCN1CC(C)OC(C)C1 (configuration not stated)
→ 15	108	105	i	0.83	-4	-2.5
CCc1nnc(NC(=O)C2CCCN2C(=O)NC2CCCCC2)s1 (configuration not stated)
→ -31	105	100	i	0.89	-6	-4.4
CC(C)(C)C(=O)OCc1nc(-c2ccc(C(F)(F)F)cc2)cs1
→ x	x	100	i	1.1	x	x
COc1ccc(C2CC(=O)c3cnc(NC(=O)c4cccc(OC)c4)nc3C2)cc1 (configuration not stated)
→ 53	105	108	i	0.87	2	0.6
O=C(Nc1ccn(Cc2cccc3ccccc23)n1)c1cccnc1
→ x	x	99	i	0.93	-2	x
O=C(NNC(=O)C1CCCCC1)c1cnccn1
→ x	x	98	i	0.89	0	-1.6
CCOc1ccc(CCNS(=O)(=O)c2ccc3c(c2)NC(=O)CC(=O)N3)cc1OCC
→ -22	50	106	i	0.83	-8	x
O=S(=O)(Nc1nc2ccccc2nc1NCCN1CCOCC1)c1cccc(Cl)c1
→ x	x	103	i	0.98	2	-0.7
COc1ccc(C2(CNC(=O)Cc3ccc(OC)c(OC)c3)CCOCC2)cc1
→ 8	128	100	i	0.96	-14	-1.0
O=c1c2sccc2nc(SCc2cc(=O)n3ccccc3n2)n1Cc1ccccn1
→ 29	99	95	i	0.97	1	x
Cc1[nH]n(-c2ccccc2)c(=O)c1N=Nc1ccc2c(c1)OCO2
→ -23	76	100	i	1.1	-3	x
COc1ccc(/C=C2\COc3ccccc3C2=O)cc1OC
→ -6	104	130	i	0.57	-3	0.5
CCC(C(=O)NCc1cccnc1)c1ccccc1 (configuration not stated)
→ -440	65	107	i	1	5	x
CN(C)c1ncc(C2=C(Cl)C(=O)C(N3CCCC3)=C(Cl)C2=O)s1
→ -8	69	30	i	0.9	3	-0.3
Cc1onc(-c2ccccc2Cl)c1C(=O)OCn1nnc2ccccc2c1=O
→ -9	103	92	i	0.85	-7	0.0
CC(C)(C)C(=O)Cn1ncc(NC2CC2)c(Br)c1=O
→ -3	129	95	i	0.96	-2	-1.6
COC(=O)c1c(Oc2nc(OC)cc(OC)n2)cccc1Oc1nc(OC)cc(OC)n1
→ 5	107	90	i	1	-3	-0.9

Next section
Values run as follows: INS promoter inh	INS promoter inh cell count	RGS16-Gao HTS	HSV replic up	HSV replic up primary fold	PKD1 inh	GALR2 agonist
CC(=O)Nc1ccc(S(=O)(=O)N2CCN(c3nnnn3-c3ccccc3)CC2)cc1
→ x	x	91	i	0.8	-9	x
COC(=O)c1c(C)oc2ccc(OC(=O)N3CCOCC3)cc12
→ x	x	91	i	0.99	0	-0.6
O=C(CN1CCC(n2nnc3cc(F)ccc32)CC1)Nc1ccccc1N1CCOCC1
→ -62	75	143	i	0.8	-19	-1.8
CCCN1CNC(=S)N(c2ccccc2C)C1
→ 13	54	100	i	0.92	-4	x
COc1ccc(CN=C2NC(=O)CC(C(=O)Nc3ccc(Cl)cc3)S2)cc1 (configuration not stated)
→ 44	75	108	i	0.95	-10	-0.5
Cc1ccc(Nc2nc(=O)c3cc([N+](=O)[O-])ccc3s2)cc1
→ x	x	97	i	0.82	x	x
CCC(CC)C(=O)Nc1cc(NC(=O)C(CC)CC)cc(C(=O)O)c1
→ 59	102	104	i	1	0	-3.1
S=C(c1ccc(-c2cc(Cl)ccc2Cl)o1)N1CCOCC1
→ x	x	94	i	0.91	-9	-0.6
CC(=O)/C(N=Nc1ccc(C(=O)O)cc1[N+](=O)[O-])=C(\C)O
→ x	x	99	i	0.95	x	x
O=C(NNS(=O)(=O)c1cccc(Cl)c1)c1cc(-c2ccc(F)cc2)nc2ccccc12
→ -94	146	102	i	0.89	5	x
COc1ccc(C(CNC(=O)/C=C/c2c(Cl)nc3ccccn23)N(C)C)cc1 (configuration not stated)
→ x	x	101	i	0.87	-10	x
CCn1c(C)nc2cc(C(=O)OC)ccc21
→ x	x	96	i	1	-1	x
CCCCOC(=O)CSCC(=O)N1N=C(c2cccs2)CC1c1ccc(F)cc1 (configuration not stated)
→ x	x	96	i	0.99	-10	-0.7
CCCn1nnc(NC(=O)c2ccc(OCC)c(Cl)c2)n1
→ i	58	103	i	0.88	7	-1.2
COc1cccc(C(C(=O)NC2CCCCC2)N(C(=O)Cc2cccs2)c2ccc(-n3cnnn3)c(OC)c2)c1 (configuration not stated)
→ 30	115	95	i	0.68	-13	-0.1
CCOC(=O)c1c(C)oc2c1c1c(c3ccccc32)OCN(CCCC(=O)O)C1
→ x	x	94	i	1	x	x
CN(C)c1nc(N)nc(-c2ccco2)n1
→ 43	114	95	i	1	-6	-1.0
Cc1occc1C(=O)NNC(=O)c1ccccc1Br
→ 30	84	104	i	0.8	-8	0.2
C=C(C)CSc1nnc([C@@H](NC(=O)OC(C)(C)C)C(C)CC)o1 (some centres not stated)
→ 28	90	100	i	0.96	-7	-2.8
CS(=O)(=O)N1CCC(Oc2ccccc2C(=O)NC2CCOC2)CC1 (configuration not stated)
→ x	x	33	i	0.94	0	x

(cont.)
Values run as follows: INS promoter inh	INS promoter inh cell count	RGS16-Gao HTS	HSV replic up	HSV replic up primary fold	PKD1 inh	GALR2 agonist
CC1=NCCN1S(=O)(=O)c1c(C(C)C)cc(C(C)C)cc1C(C)C
→ x	x	98	i	0.73	1	x
CCC(Oc1ccccc1)C(=O)Nc1nnc(C(F)(F)F)s1 (configuration not stated)
→ 12	100	103	i	1.1	-3	-0.9
CCOC(=O)c1cccc(Nc2nc(-c3cccnc3)nc3ccccc23)c1
→ x	x	105	x	x	-9	-0.9
CCC(OC(=O)c1ccco1)C(=O)NCc1ccc(C)cc1 (configuration not stated)
→ -45	134	119	i	1.2	-8	-2.2
CCOC(=O)c1c(NC(=O)CSc2nnc(C)c(=O)[nH]2)sc2c1CCC2
→ -8	125	103	i	1.1	4	0.0
COc1ccc(-c2cn3ccccc3n2)cc1
→ x	x	101	i	0.93	x	x
CCOC(=O)c1cnc(SCC(=O)Nc2cc(OC)ccc2OC)nc1N
→ 23	87	98	i	0.94	0	-4.7
CCCNC(=O)N1CCN(c2ncccn2)CC1
→ -33	60	80	i	1	-9	-3.2
O=C(CN1CCC(O)(c2ccc3c(c2)OCO3)CC1)OC1CCCCC1
→ -27	85	104	i	0.94	1	-1.8
COc1ccc(C(=O)Nc2cccc(/C=C(\CCC(=O)O)c3nc4ccccc4s3)c2)cc1
→ x	x	92	i	0.9	x	x
CC1CN(c2nc3ccccn3c(=O)c2/C=C(\C#N)C(=O)N2CCOCC2)CC(C)O1 (configuration not stated)
→ x	x	105	i	0.96	x	x
Cc1cc(OCC(=O)OCC(=O)Nc2cc(C(F)(F)F)ccc2N2CCOCC2)ccc1Cl
→ -47	139	104	i	1	-2	-0.9
Cc1cc(-n2nc(C)cc2C)nc(N)n1
→ 8	60	104	i	1.1	-3	-1.4
CCCNC(=O)c1cccc(COCC(F)(F)F)c1
→ 64	110	115	i	1.2	-3	-1.6
COc1ccc(C(C)(C)C)cc1NC(=O)c1cncc(Br)c1
→ 24	148	106	i	0.91	-3	-0.8
O=C(c1ccc(N2CCCC2)c([N+](=O)[O-])c1)N1CCN(CCO)CC1
→ x	x	85	i	1.1	x	x
COc1ccc(C(C(=O)NC2CCCCC2)N(C(=O)CCl)c2ccc(OC)cc2)cc1 (configuration not stated)
→ -163	1	116	i	0.64	1	-1.4
COc1cc(NC(=S)N2CCN(Cc3ccccc3)CC2)cc(OC)c1
→ 57	99	147	i	1	-7	0.0
CCn1c(CNC(=O)Cc2ccc(OC)cc2)nnc1SCCOc1ccccc1
→ i	56	106	i	0.89	3	-0.7
Cc1cc(C)c(Cn2cnc3ccccc32)c(C)c1
→ x	x	102	i	0.96	-1	x

2 entries picked at random from those above, as already listed:
Values run as follows: INS promoter inh	INS promoter inh cell count	RGS16-Gao HTS	HSV replic up	HSV replic up primary fold	PKD1 inh	GALR2 agonist
Cc1cc(OCC(=O)OCC(=O)Nc2cc(C(F)(F)F)ccc2N2CCOCC2)ccc1Cl
→ -47	139	104	i	1	-2	-0.9
COc1ccc(C(=O)Nc2cccc(/C=C(\CCC(=O)O)c3nc4ccccc4s3)c2)cc1
→ x	x	92	i	0.9	x	x

The main list resumes; the 6 compounds before the break are reprinted first.
Values run as follows: INS promoter inh	INS promoter inh cell count	RGS16-Gao HTS	HSV replic up	HSV replic up primary fold	PKD1 inh	GALR2 agonist
COc1ccc(C(C)(C)C)cc1NC(=O)c1cncc(Br)c1
→ 24	148	106	i	0.91	-3	-0.8
O=C(c1ccc(N2CCCC2)c([N+](=O)[O-])c1)N1CCN(CCO)CC1
→ x	x	85	i	1.1	x	x
COc1ccc(C(C(=O)NC2CCCCC2)N(C(=O)CCl)c2ccc(OC)cc2)cc1 (configuration not stated)
→ -163	1	116	i	0.64	1	-1.4
COc1cc(NC(=S)N2CCN(Cc3ccccc3)CC2)cc(OC)c1
→ 57	99	147	i	1	-7	0.0
CCn1c(CNC(=O)Cc2ccc(OC)cc2)nnc1SCCOc1ccccc1
→ i	56	106	i	0.89	3	-0.7
Cc1cc(C)c(Cn2cnc3ccccc32)c(C)c1
→ x	x	102	i	0.96	-1	x
O=C(CN1CCN(c2ccc(F)cc2)CC1)Nc1nnc(-c2ccccc2)s1
→ x	x	100	i	0.94	-2	0.9
Cc1cccc(NCc2n[nH]c(=S)n2-c2ccccc2)c1
→ x	x	100	i	0.97	-8	x
CC(=O)Nc1sc(C)c(C)c1C(=O)OCC(=O)N(C)C1CCS(=O)(=O)C1 (configuration not stated)
→ x	x	107	i	1	-7	-0.6
CCN(CCS(=O)(=O)c1ccc(Cl)cc1)C(=O)Nc1ccc(Cl)cc1
→ x	x	103	i	0.89	x	x
Cc1ccc(-c2ccc(C(=O)O)o2)cc1Cl
→ x	x	96	i	0.83	x	x
Cc1cc(C)nc(SCCn2c(N3CCOCC3)nc3c2c(=O)[nH]c(=O)n3C)n1
→ x	x	98	i	1.1	-2	x
N#Cc1ccc(Oc2nc(C(N)=O)cc(-c3ccccc3)n2)cc1
→ 20	122	101	i	0.84	-12	-2.1
COc1cccc(N2CC34C=CC(O3)C(C(=O)O)C4C2=O)c1 (configuration not stated)
→ -7	107	106	i	0.88	1	0.7
COc1ccc(NC(C)C(=O)Nc2cc(C(F)(F)F)ccc2N2CCOCC2)c(OC)c1 (configuration not stated)
→ 7	62	93	i	0.82	-14	0.0
C/C(=N\NC(=O)C(=O)Nc1ccc(C)c(Cl)c1)c1ccncc1
→ 39	117	100	i	1.4	7	-0.8
CC(=O)/C(=N\Nc1cccc(Cl)c1)Sc1cccc2cccnc12
→ 38	47	160	i	0.9	-1	-2.7
C/C(=N\NC(=O)c1cccc([N+](=O)[O-])c1)c1ccco1
→ x	x	98	i	1.1	x	x
CCOC(=O)c1c(NC(=O)c2cccs2)sc(C(=O)N(C)C)c1C
→ -10	139	111	i	0.82	0	1.7
Cc1ccc(C(=O)Nc2cccc([N+](=O)[O-])c2)cc1S(=O)(=O)Nc1cccc(C(=O)O)c1
→ x	x	101	i	0.76	-4	x
Cc1ccsc1C(=O)NNC(=S)NCC(C)C
→ 25	95	100	i	1	-5	-4.1
COc1ccc2cc(Br)ccc2c1CC(=O)N(C)C
→ x	x	99	i	0.95	0	x
CCC(Sc1ncccc1C(=O)Oc1cccc([N+](=O)[O-])c1)C(=O)Nc1ccccc1OC (configuration not stated)
→ 16	69	108	i	0.98	-3	0.6
CSCCOC(=O)COc1ccc(/C=N/NC(=O)c2nn(C)cc2Cl)cc1
→ 10	105	105	i	0.96	-3	-1.6
O=C(NCCC1=CCCCC1)c1cnccn1
→ -453	56	99	i	1.1	-4	0.3
Cc1ccc(Nc2nnc(-c3ccc4c(c3)OCO4)o2)c(C)c1
→ x	x	85	i	0.91	x	x
CCOC(=O)C1(Cc2ccccc2)CCCN(CCO)C1 (configuration not stated)
→ x	x	105	i	0.98	1	x
Clc1ccc(C2[C@H]3CN(CC4CCCCC4)[C@H](c4ccccc4)C34CC2(c2cccnc2)C4)cn1 (some centres not stated)
→ x	x	98	i	0.76	x	x
CC(C)Cn1c(-c2nn(C)cc2Cl)n[nH]c1=S
→ 3	144	41	i	0.93	-1	-2.0
